TRPML1 agonist: qHTS for Agonists of the Human Mucolipin Transient Receptor Potential 1 (TRPML1); Mucolipin-1 (Homo sapiens), Q9GZU1; TRPML1-expressing cells, Ca2+ dye fluorescence, FDSS; host cell line not named in the record; reference of the full effect not given here; activation, % (concentration not given with the values); 410,000 tested, 0.12% active; AID 624414, 2012; in the data active = activation above about 50%; inconclusive = about 30% to 50%; inactive = below about 30%; note: 0% is about no effect; the text of the record puts the active cut at 80%
Target sequence (Q9GZU1 whole entry, looked up): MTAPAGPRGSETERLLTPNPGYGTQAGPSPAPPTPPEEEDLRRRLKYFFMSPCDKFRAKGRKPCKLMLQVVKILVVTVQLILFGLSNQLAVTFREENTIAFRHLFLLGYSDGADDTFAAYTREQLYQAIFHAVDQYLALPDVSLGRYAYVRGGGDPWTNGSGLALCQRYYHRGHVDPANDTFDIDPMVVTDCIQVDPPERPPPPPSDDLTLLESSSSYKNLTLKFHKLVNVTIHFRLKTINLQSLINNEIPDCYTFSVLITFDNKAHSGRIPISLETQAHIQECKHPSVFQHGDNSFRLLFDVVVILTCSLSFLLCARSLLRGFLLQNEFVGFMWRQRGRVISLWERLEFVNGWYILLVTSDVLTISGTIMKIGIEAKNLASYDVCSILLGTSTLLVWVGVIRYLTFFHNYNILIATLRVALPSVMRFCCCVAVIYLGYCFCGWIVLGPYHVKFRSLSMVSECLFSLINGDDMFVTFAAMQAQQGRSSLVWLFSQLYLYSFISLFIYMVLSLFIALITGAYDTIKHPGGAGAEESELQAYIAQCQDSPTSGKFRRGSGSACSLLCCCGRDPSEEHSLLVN
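Cells: TRPML1-DL, 1X Tet inducer, ~16 h at 37 degrees C/5% CO2. Dye: ABD Ca8 no-wash + quencher, 45-90 min RT. Read: 10 s baseline, compound add, 110 s agonist phase; 54-4 EC80 (4uM final), 110 s antagonist phase.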
PINK1 expr mod: A Quantitative High throughput Screen to Identify Chemical Modulators of PINK1 Expression | PINK1 immunofluorescence, high-content cytometry, 24 h | Potency, µM (series often up to 76.6 µM), inactives show at the highest dose activation (PINK1 increase), hits mostly activators | 410,000 tested, 0.2% active | AID 624263, 2012; active = well fitted activation curve with a large enough effect; inconclusive = small, poorly fitted or top-dose-only effect; inactive = flat fitted curve, though single readings scatter; cell line not stated here;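 note: potency is the fitted concentration of half-maximal effect; % of control where 0% means no effect; nearly all actives have a fitted effect of over 65% in size; a mitochondrial uncoupler was the plate control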
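PINK1 protein, normally rapidly degraded, was detected by immunofluorescence after 24 hour compound treatment of a stable cell line. Titration data (5 concentrations) came from laser-scanning cytometry, with CCCP-treated wells as controls.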
D2 PAM: Beta-Arrestin HTS for Positive Allosteric Modulators of the Human D2 Dopamine Receptor: Potentiators. D(2) dopamine receptor (Homo sapiens), P14416. DiscoveRx D2 beta-arrestin cells, luminescence, 90 min; 100% = 57 uM dopamine signal. potentiation, % (concentration not given with the values). 360,000 tested, 0.23% active; active = potentiation of 50% or more; inconclusive = 30% to 50%; inactive = 30% or less;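 note: compound concentration not given in the record; tested on top of an EC20 dose of dopamine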
Target sequence (P14416 whole entry, looked up): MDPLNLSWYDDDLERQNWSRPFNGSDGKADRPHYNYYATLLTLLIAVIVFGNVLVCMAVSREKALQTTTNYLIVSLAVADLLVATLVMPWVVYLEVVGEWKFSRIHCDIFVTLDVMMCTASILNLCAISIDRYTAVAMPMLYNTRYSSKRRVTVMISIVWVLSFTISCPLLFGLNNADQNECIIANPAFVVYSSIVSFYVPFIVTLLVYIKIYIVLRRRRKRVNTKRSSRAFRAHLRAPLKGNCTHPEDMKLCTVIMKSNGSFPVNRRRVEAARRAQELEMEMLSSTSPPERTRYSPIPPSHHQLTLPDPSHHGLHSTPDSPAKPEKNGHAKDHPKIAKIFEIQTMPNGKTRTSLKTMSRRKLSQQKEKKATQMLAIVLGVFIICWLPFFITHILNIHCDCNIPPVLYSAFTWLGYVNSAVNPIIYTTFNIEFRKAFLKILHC
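PathHunter D2 cells, attached overnight at 37 deg C, received compound in DMSO plus dopamine at EC20 (50 nM final) for 90 min at 37 deg C. Beta-arrestin recruitment was read as luminescence after 1 h with detection reagent at ambient temperature.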
D2 agonist: Beta-Arrestin HTS for Positive Allosteric Modulators of the Human D2 Dopamine Receptor: Agonists | DiscoveRx PathHunter D2 beta-arrestin, luminescence, 90 min; 100% = 57 uM dopamine signal | activation, % (test concentration not listed) | D(2) dopamine receptor (Homo sapiens), P14416 | 360,000 tested, 0.084% active; in the data active = activation above about 40%; inconclusive = about 15% to 40%; inactive = below about 15%; note: compound concentration not given in the record; the text of the record calls up to 30% inactive
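Agonist mode: compounds alone added to overnight-plated D2 PathHunter cells for 90 min at 37 C, with 57 uM final dopamine (EC100) defining full response. Beta-arrestin recruitment detected by chemiluminescent reagent, read after 1 h at ambient temperature.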
Six1-Eya2 inh: qHTS Assay for Inhibitors of the Six1/Eya2 Interaction; AlphaScreen GST-Six1/His-Eya2 binding, biochemical; hits give low values; control for the full effect not named in the record; activity change, % (no concentration beside the values); 360,000 tested, 0.56% active; in the data active = activity change below about -65%; inconclusive = about -30% to -65%; inactive = above about -30%; note: % is set by controls: 0 for no effect and ±100 for the full control effect; compound concentration not given in the record
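Homogeneous AlphaScreen proximity assay pairing GST-Six1 with His-tagged Eya2 (added as 5X mix: 250 nM and 500 nM) in 50 mM Tris pH 8.0, 300 mM NaCl, 1 mM TCEP. Glutathione donor and nickel acceptor beads; 1 h, 37 °C, dark.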
TRPML1 inh: qHTS for Inhibitors of the Human Mucolipin Transient Receptor Potential 1 (TRPML1); TRPML1-inducible cells, Ca2+ dye fluorescence, FDSS; hits give low values; inhibition of EC80 agonist-evoked calcium signal; activity change, negative = inhibition, % (concentration not given with the values); 390,000 tested, 0.02% active; AID 624415, 2012; in the data active means activity change below about -50%; inconclusive means about -30% to -50%; inactive means above about -30%;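 note: stimulus is agonist 54-4 at its EC80 concentration; % is set by controls: 0 for no effect and ±100 for the full control effect; compound concentration not given in the record; the text of the record puts the active cut at -80%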
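Calcium fluorescence in TRPML1-DL cells induced overnight with Tet: a 110 s read after compound pin addition, then a 110 s antagonist read after challenge with 54-4 at 4 uM final (EC80).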
* = called active by the depositor; & = joins results of further samples; [ ] = remark or other dose. Outcome played no part in choosing rows; any-hit rate near 1%.

Results for Cc1cc(=O)c2cc(NC(=O)c3ccccc3Cl)ccc2[nH]1 ?
TRPML1 agonist: -0.6; PINK1 expr mod: 2.7%; D2 PAM: 6; D2 agonist: -0.4; Six1-Eya2 inh: -2; TRPML1 inh: -17

Results for CCCNc1nc(N)nc(-c2cc(Cl)ccc2OC)n1 ?
TRPML1 agonist: -0.1; PINK1 expr mod: 3.6%; D2 PAM: -8; D2 agonist: -1.8; Six1-Eya2 inh: -11; TRPML1 inh: 5

Results for CC(C)Sc1cc(N2CCCC2)nc(-c2ccccc2Cl)n1 ?
TRPML1 agonist: 1.9; PINK1 expr mod: 14%; D2 PAM: -7; D2 agonist: -7.9; Six1-Eya2 inh: 18; TRPML1 inh: 9

Results for Cc1cc(N)n(-c2ncnc3scc(-c4ccccc4)c23)n1 ?
TRPML1 agonist: -0.3; PINK1 expr mod: 1.9%; D2 PAM: 1; D2 agonist: -0.8; Six1-Eya2 inh: -2; TRPML1 inh: 13

What do the screens show for `O=C(CN1C(=O)NC(c2ccccc2)(c2ccccc2)C1=O)NC1CCCCC1`?
TRPML1 agonist: 1.6; PINK1 expr mod: 0.5%; D2 PAM: -1; D2 agonist: 4.0; Six1-Eya2 inh: 2; TRPML1 inh: -6

Results for CC(C)CNC(=O)C1CCCN1S(=O)(=O)c1ccc(Cl)cc1 (configuration not stated) ?
TRPML1 agonist: -0.3; PINK1 expr mod: 7.1%[38.3 µM]; D2 PAM: -6; D2 agonist: 0.2; Six1-Eya2 inh: -1; TRPML1 inh: 6

How did CC(C)CC(=O)Nc1ccc2oc(-c3ccncc3)nc2c1 do in these assays?
TRPML1 agonist: 0.2; PINK1 expr mod: -0.7%; D2 PAM: -8; D2 agonist: 0.2; Six1-Eya2 inh: -5; TRPML1 inh: 3

What do the screens show for `CC1Nc2ccccc2C(=O)N1NC(=O)c1ccc(Br)cc1` (configuration not stated)?
TRPML1 agonist: 1.5; PINK1 expr mod: -1.5%; D2 PAM: 0; D2 agonist: -2.0; Six1-Eya2 inh: 3; TRPML1 inh: 15

What do the screens show for `N/C(=N\OC(=O)CCCCCN1C(=O)c2ccccc2C1=O)c1ccccn1`?
TRPML1 agonist: -0.2; PINK1 expr mod: -1.2%; D2 PAM: 0; D2 agonist: 5.9; Six1-Eya2 inh: 2; TRPML1 inh: 17

What do the screens show for `CC(=O)NCc1ccc2[nH]c(C)cc2c1`?
TRPML1 agonist: 0.0; PINK1 expr mod: -0.9%; D2 PAM: -5; D2 agonist: -6.2; Six1-Eya2 inh: 5; TRPML1 inh: 0

What do the screens show for `O=c1[nH]c(CSc2nc3ccccc3s2)nc2ccccc12`?
TRPML1 agonist: 0.9; PINK1 expr mod: 2.9%; D2 PAM: -2; D2 agonist: 1.6; Six1-Eya2 inh: -2; TRPML1 inh: 18

Results for COc1ccc(N2Cc3cccc(C(=O)Nc4cccc(F)c4)c3C2=O)cc1 ?
TRPML1 agonist: 3.1; PINK1 expr mod: 2.1%; TRPML1 inh: -6

What do the screens show for `COc1cc(C(=O)O)ccc1OCc1c(C)noc1C`?
TRPML1 agonist: -1.4; PINK1 expr mod: -3.5%; D2 PAM: -5; D2 agonist: -2.3; Six1-Eya2 inh: -1; TRPML1 inh: -5

What do the screens show for `c1ccc2c(c1)c1cccc3ccc4cccc2c4c31`?
TRPML1 agonist: -0.1; PINK1 expr mod: 0.4%; D2 PAM: 0; D2 agonist: 1.4; Six1-Eya2 inh: 7; TRPML1 inh: 3

Results for COc1ccc(Cn2c(=O)[nH]c3cc(C(=O)N4CCN(c5ccccc5)CC4)ccc3c2=O)cc1 ?
TRPML1 agonist: -1.1&1.5; PINK1 expr mod: 13%&2.2%; D2 PAM: -4; D2 agonist: 0.3; Six1-Eya2 inh: 1; TRPML1 inh: -10&-13

What do the screens show for `CCn1c(SCC(=O)NC2CCCCC2)nnc1-c1ccccc1F`?
TRPML1 agonist: 0.6; PINK1 expr mod: 0.1%; D2 PAM: -4; D2 agonist: -2.9; Six1-Eya2 inh: 5; TRPML1 inh: 11

How did Cn1c(COc2ccccc2)nnc1SCc1nc2ccccc2[nH]1 do in these assays?
TRPML1 agonist: 0.6; PINK1 expr mod: 21%[38.3 µM]; D2 PAM: -12; D2 agonist: -3.7; Six1-Eya2 inh: 23; TRPML1 inh: -15

What do the screens show for `NC(=O)C1CCN(c2ccc3c(c2)S(=O)(=O)c2ccccc2C3=O)CC1`?
TRPML1 agonist: 5.5; PINK1 expr mod: 2.6%; D2 PAM: -5; D2 agonist: -2.2; Six1-Eya2 inh: 2; TRPML1 inh: 40

What do the screens show for `O=C(NC1CCN(C(=O)NCc2ccccc2)CC1)c1ccccc1`?
TRPML1 agonist: 0.1; PINK1 expr mod: -2.8%; D2 PAM: -6; D2 agonist: -0.3; Six1-Eya2 inh: 6; TRPML1 inh: -2

What do the screens show for `O=C(O)CCC(=O)Nc1ccc(-c2csc(Nc3cccc4ccccc34)n2)cc1`?
TRPML1 agonist: 1.5; PINK1 expr mod: 0.5%; D2 PAM: -1; D2 agonist: 0.2; Six1-Eya2 inh: -6; TRPML1 inh: 3

What do the screens show for `COc1cc(NC(=O)c2ccc3c(c2)OCO3)ccc1NC(=O)c1ccco1`?
TRPML1 agonist: 2.9; PINK1 expr mod: 1.3%; D2 PAM: -27; D2 agonist: -2.8; Six1-Eya2 inh: 4; TRPML1 inh: 16

What do the screens show for `COc1cccc(CNC(=O)Cn2c(=O)ccc3cc(S(=O)(=O)N4CCC(C)CC4)ccc32)c1`?
TRPML1 agonist: 0.1; PINK1 expr mod: -5.1%; TRPML1 inh: -6

How did COc1ccc2c(c1OC)C(=O)N(c1cccc(C)c1)C2 do in these assays?
TRPML1 agonist: -0.7; PINK1 expr mod: -0.3%; D2 PAM: -20; D2 agonist: -4.5; Six1-Eya2 inh: 6; TRPML1 inh: 7

How did CCOc1ccc(NC(=O)N(CC(C)C)CC(C)C)cc1 do in these assays?
TRPML1 agonist: -0.5; PINK1 expr mod: 6.9%[38.3 µM]; D2 PAM: -7; D2 agonist: -2.4; Six1-Eya2 inh: 0; TRPML1 inh: 2

Results for Cc1ccc(CNC(=O)CSc2ncn[nH]2)cc1 ?
TRPML1 agonist: 1.6; PINK1 expr mod: 5.2%; D2 PAM: -1; D2 agonist: 3.8; Six1-Eya2 inh: 6; TRPML1 inh: -16

How did Nc1nonc1-n1nnc(C(=O)N/N=C\c2cccc(Cl)c2)c1CN1CCOCC1 do in these assays?
TRPML1 agonist: -0.8; PINK1 expr mod: 2.0%; D2 PAM: 0; D2 agonist: 2.7; Six1-Eya2 inh: -4; TRPML1 inh: 40

How did CCOc1cc(S(=O)(=O)N2CC=C(c3ccc(F)cc3)CC2)c(OCC)cc1-n1cnnn1 do in these assays?
TRPML1 agonist: 0.6; PINK1 expr mod: 9.8%[38.3 µM]; D2 PAM: -7; D2 agonist: -0.4; Six1-Eya2 inh: 4; TRPML1 inh: 18

Results for COc1cccc(C(=O)CSc2nc3ccccc3n2CC(=O)N(C(C)C)C(C)C)c1 ?
TRPML1 agonist: 0.3; PINK1 expr mod: 0.7%; D2 PAM: -2; D2 agonist: -0.8; Six1-Eya2 inh: 0; TRPML1 inh: -2

Results for CCN1CCCC1Cn1cnc2c([nH]c3ccc(Cl)cc32)c1=O (configuration not stated) ?
TRPML1 agonist: 0.1; PINK1 expr mod: 10.0%; D2 PAM: -23; D2 agonist: -7.1; Six1-Eya2 inh: -5; TRPML1 inh: 13

What do the screens show for `NC(=S)N=Nc1ccc(O)cc1`?
TRPML1 agonist: 0.3; PINK1 expr mod: 2.6%; D2 PAM: 14; D2 agonist: 1.3; Six1-Eya2 inh: -16; TRPML1 inh: 8

How did COc1ccc(NC(=O)c2coc(=O)c3ccccc23)cc1OC do in these assays?
TRPML1 agonist: -0.8; PINK1 expr mod: 0.3%; TRPML1 inh: -16

What do the screens show for `Cc1nc2ccccc2c(=O)n1/N=C/c1ccc(F)cc1`?
TRPML1 agonist: 1.5; PINK1 expr mod: -1.2%; D2 PAM: -4; D2 agonist: 12; Six1-Eya2 inh: 1; TRPML1 inh: 18

How did CC1CCCN(S(=O)(=O)c2ccc(NC(=O)C3CCN(C(=O)C(C)(C)C)CC3)cc2)C1 (configuration not stated) do in these assays?
TRPML1 agonist: 0.1; PINK1 expr mod: 0.0%; D2 PAM: -2; D2 agonist: -2.8; Six1-Eya2 inh: -3; TRPML1 inh: -7

What do the screens show for `CS(=O)(=O)c1ccc(C(=O)CN2C(=O)NC3(CCCc4ccccc43)C2=O)cc1` (configuration not stated)?
TRPML1 agonist: 0.5; PINK1 expr mod: -1.3%; D2 PAM: -1; D2 agonist: -0.8; Six1-Eya2 inh: -1; TRPML1 inh: -3

How did CCC1OC(C(C)C)Cc2[nH][nH]c(=O)c21 (configuration not stated) do in these assays?
TRPML1 agonist: -0.6; PINK1 expr mod: -0.3%; Six1-Eya2 inh: -3

What do the screens show for `CC(C)c1ccc(-n2c(-c3ccccc3)c[n+]3c2CCc2ccccc2-3)cc1`?
TRPML1 agonist: -0.6; PINK1 expr mod: inconclusive; D2 PAM: -13; D2 agonist: -2.3; Six1-Eya2 inh: -3; TRPML1 inh: 10

How did Cn1c(=O)c2c(nc(NCCOc3ccc(F)cc3)n2C)n(C)c1=O do in these assays?
TRPML1 agonist: -0.7; PINK1 expr mod: -0.2%; D2 PAM: -12; D2 agonist: -5.4; Six1-Eya2 inh: 1; TRPML1 inh: -2

What do the screens show for `CCOC(=O)c1c(N2C(=O)CC(Sc3ccccc3C(=O)O)C2=O)sc(C)c1C` (configuration not stated)?
TRPML1 agonist: -0.6; PINK1 expr mod: 0.0%; D2 PAM: -4; D2 agonist: -1.5; Six1-Eya2 inh: -5; TRPML1 inh: -8

How did CC(C)(C)OC(=O)NCCc1nnc(S(=O)(=O)Cc2ccc(Cl)cc2Cl)o1 do in these assays?
TRPML1 agonist: 7.3; PINK1 expr mod: -2.8%; D2 PAM: -32; D2 agonist: -4.3; Six1-Eya2 inh: 9; TRPML1 inh: 8

What do the screens show for `CCCCCc1ccc(-c2cn(CN3C(=O)c4ccccc4C3=O)nn2)cc1`?
TRPML1 agonist: -0.3&-0.4; PINK1 expr mod: 0.4%; D2 PAM: -1; D2 agonist: 0.0; Six1-Eya2 inh: 3; TRPML1 inh: -6

Looked up by structure from the list above (2):
What do the screens show for `CCOC(=O)c1c(N2C(=O)CC(Sc3ccccc3C(=O)O)C2=O)sc(C)c1C` (configuration not stated)?
TRPML1 agonist: -0.6; PINK1 expr mod: 0.0%; D2 PAM: -4; D2 agonist: -1.5; Six1-Eya2 inh: -5; TRPML1 inh: -8

How did Cn1c(=O)c2c(nc(NCCOc3ccc(F)cc3)n2C)n(C)c1=O do in these assays?
TRPML1 agonist: -0.7; PINK1 expr mod: -0.2%; D2 PAM: -12; D2 agonist: -5.4; Six1-Eya2 inh: 1; TRPML1 inh: -2
